# Screens deposited in PubChem BioAssay by Fisher Drug Discovery Resource Center.
# NPYLR7 ag: activates Aedes aegypti NPYLR7 receptor; HEK293T NPYLR7/Galpha15, GCaMP6s calcium fluorescence; activation, % at 10 µM; 270,000 compounds, 0.15% hits; in the data active = activation above about 40%;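 note: 0% = vehicle and 100% = reference agonist at the receptor; some compounds past the cut are filed as inactive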
# NPYLR7 ag max-min: further read-out of NPYLR7 ag, marked with its call; activation, %; measured here: Max-Min RFU normalised activation; some inactives read as strong as hits;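 span of the calcium signal over five minutes; 0% = vehicle and 100% = native peptide agonist; compound fluorescence can raise it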
# Numbers without * were called inactive; & = joins results of further samples.
SMILES,NPYLR7 ag,NPYLR7 ag max-min
CCn1c(SCC(=O)Nc2ccccc2Cl)nc2c(-c3ccccc3)c[nH]c2c1=O,1,0
CCOC(=O)c1cc(C(=O)NC(C)C)nn1C,-5,-5
COc1ccc(C=C2CSc3ccc(F)cc3C2=O)cc1O,3,10
Cc1cc(-n2cnnc2)ncc1-c1ccc(C(C)N2CCCC2)cc1 (stereo not drawn),14,11
Cc1cc(CNC(=O)N2CCCC2CC2CCCCC2)no1 (stereo not drawn),4,1
COc1ccccc1N1CCN(C(=O)c2ccccc2F)C(C)C1=O (stereo not drawn),-8,6
CC(C)Cc1cc(C(=O)NCc2nncn2C2CCCCC2)n(C)n1,5,-2
COc1coc(C(=O)Nc2ccccc2C(N)=O)cc1=O,14,7
COc1ccc(NC(=O)N2CCC3(CC2)C(=O)N(CC(=O)NCCc2ccc(Cl)cc2Cl)CN3c2ccccc2)cc1,18,21
N#Cc1ccc(CN(c2ccccc2)S(=O)(=O)c2cccc(C#N)c2)cc1,3,1
CCOc1cccc(-c2nc(C(N)=O)c3[nH]c(=O)n(-c4cccc(OC)c4)c3n2)c1O,15,5
O=C(COc1ccc2ccccc2c1)NN=Cc1ccccc1[N+](=O)[O-],3,-2
CC(=O)c1c(O)c(C(C)=O)c(O)c(C(C)=O)c1O,4,5
CC1=C(C(=O)Nc2ccc(Cl)cc2)C(c2ccc(Br)cc2)NC(=O)N1 (stereo not drawn),-17,-23
C=CCOC1C[C@](OCc2ccc(F)cc2)(C(=O)NCC2CCCO2)C[C@@H](O)[C@H]1O (stereo partly drawn),7,17
CC1(C)CC(=O)C(C2c3ccccc3Nc3c2cnc(Cl)c3C#N)C(=O)C1 (stereo not drawn),-3,-4
CC(C)OCC(O)CN1CCOC(CN2CCCN(C(=O)c3ccccc3)CC2)C1 (stereo not drawn),7,6
CCOc1cccc(N2C(=O)CC(N3CCN(c4ccccn4)CC3)C2=O)c1 (stereo not drawn),-1,-1
C=CCn1cc(-c2c(-c3ccccc3)ncn2CCc2ccccn2)cn1,5,1
Cc1ncsc1CCC(=O)N1CCCC2(CC1)CNC(=O)O2 (stereo not drawn),1,0
c1ccc2oc(-c3cnnc(NCC(c4ccncc4)N4CCOCC4)n3)cc2c1 (stereo not drawn),3,0
Cc1cccnc1C(NC(=O)C1CCN(CCOc2ccc(Cl)cc2Cl)CC1)c1ccc(F)cc1 (stereo not drawn),7,9
Cc1nn(C)cc1C(C)NC(=O)CCC(=O)Nc1ccc(F)c(Cl)c1 (stereo not drawn),14,12
Cc1ccc(CNC(=O)c2ccc(OC3CCN(S(=O)(=O)N(C)C)CC3)cc2)o1,19,9
CN(CC(=O)Nc1cc(F)ccc1F)S(=O)(=O)c1ccc2c(c1)OCCCO2,8,4
O=C(Nc1c(C(=O)c2ccc3c(c2)OCO3)oc2ccccc12)c1cccc([N+](=O)[O-])c1,7,13
C[C@@H](NCc1cc(Br)cc2[nH]c(=O)c(=O)[nH]c12)P(=O)(O)O,-16,-20
CC(Oc1ccc(Br)cc1)C(=O)NCc1cccc(NC(=O)C2CC2)c1 (stereo not drawn),-1,0
O=C(CSc1nnc(Cc2ccccc2)c(=O)[nH]1)Nc1ccc(OC(F)F)cc1,-7,-8
Cc1c(C(=O)N2CCN(C(=O)N(C)C)CC2)cc(-c2ccc(Cl)cc2)n1-c1ccccc1F,-6,-1
CCCn1c(SCC(=O)c2ccc(Br)cc2)nc2ccccc21,-1,-7
CC1CN(C(=O)c2ccccc2NC(=O)c2ccc(C#N)cc2)CC(C)O1 (stereo not drawn),1,1
C=C(C)Cn1c(=O)c2c(nc3n2CCN3c2ccc(CCCC)cc2)n(C)c1=O,0,-3
O=C1CCCc2c1cnc1nc(NC3CCCC3)[nH]c(=O)c21,-1,34
CCNC(=O)c1cccc(-c2ccnc3c2ccn3C)c1,1,0
Clc1cncc(Cl)c1CN1CCC(OCc2cccnc2)CC1,-4,-11
Cn1cc(C(=O)N(Cc2cccc(F)c2)C2CC2)ccc1=O,5,1
Cc1ccc2sc(Cl)nc2c1C,3,-9
CC1(Cc2ccc3c(c2)OCO3)C(=O)Nc2ccc(-c3ccc4[nH]ccc4c3)cc21 (stereo not drawn),4,3
CCc1ccc2c(c1)NC(=O)C2(C)Cc1ccc(F)cc1 (stereo not drawn),-2,7

# Exported bar-delimited: part of the list above.
SMILES | NPYLR7 ag | NPYLR7 ag max-min
CC(=O)c1c(O)c(C(C)=O)c(O)c(C(C)=O)c1O | 4 | 5
CC1=C(C(=O)Nc2ccc(Cl)cc2)C(c2ccc(Br)cc2)NC(=O)N1 (stereo not drawn) | -17 | -23
C=CCOC1C[C@](OCc2ccc(F)cc2)(C(=O)NCC2CCCO2)C[C@@H](O)[C@H]1O (stereo partly drawn) | 7 | 17
CC1(C)CC(=O)C(C2c3ccccc3Nc3c2cnc(Cl)c3C#N)C(=O)C1 (stereo not drawn) | -3 | -4
CC(C)OCC(O)CN1CCOC(CN2CCCN(C(=O)c3ccccc3)CC2)C1 (stereo not drawn) | 7 | 6
CCOc1cccc(N2C(=O)CC(N3CCN(c4ccccn4)CC3)C2=O)c1 (stereo not drawn) | -1 | -1
C=CCn1cc(-c2c(-c3ccccc3)ncn2CCc2ccccn2)cn1 | 5 | 1
Cc1ncsc1CCC(=O)N1CCCC2(CC1)CNC(=O)O2 (stereo not drawn) | 1 | 0
c1ccc2oc(-c3cnnc(NCC(c4ccncc4)N4CCOCC4)n3)cc2c1 (stereo not drawn) | 3 | 0
Cc1cccnc1C(NC(=O)C1CCN(CCOc2ccc(Cl)cc2Cl)CC1)c1ccc(F)cc1 (stereo not drawn) | 7 | 9
Cc1nn(C)cc1C(C)NC(=O)CCC(=O)Nc1ccc(F)c(Cl)c1 (stereo not drawn) | 14 | 12
Cc1ccc(CNC(=O)c2ccc(OC3CCN(S(=O)(=O)N(C)C)CC3)cc2)o1 | 19 | 9
CN(CC(=O)Nc1cc(F)ccc1F)S(=O)(=O)c1ccc2c(c1)OCCCO2 | 8 | 4
O=C(Nc1c(C(=O)c2ccc3c(c2)OCO3)oc2ccccc12)c1cccc([N+](=O)[O-])c1 | 7 | 13
C[C@@H](NCc1cc(Br)cc2[nH]c(=O)c(=O)[nH]c12)P(=O)(O)O | -16 | -20
CC(Oc1ccc(Br)cc1)C(=O)NCc1cccc(NC(=O)C2CC2)c1 (stereo not drawn) | -1 | 0
O=C(CSc1nnc(Cc2ccccc2)c(=O)[nH]1)Nc1ccc(OC(F)F)cc1 | -7 | -8
Cc1c(C(=O)N2CCN(C(=O)N(C)C)CC2)cc(-c2ccc(Cl)cc2)n1-c1ccccc1F | -6 | -1
CCCn1c(SCC(=O)c2ccc(Br)cc2)nc2ccccc21 | -1 | -7
CC1CN(C(=O)c2ccccc2NC(=O)c2ccc(C#N)cc2)CC(C)O1 (stereo not drawn) | 1 | 1
C=C(C)Cn1c(=O)c2c(nc3n2CCN3c2ccc(CCCC)cc2)n(C)c1=O | 0 | -3
O=C1CCCc2c1cnc1nc(NC3CCCC3)[nH]c(=O)c21 | -1 | 34
CCNC(=O)c1cccc(-c2ccnc3c2ccn3C)c1 | 1 | 0
Clc1cncc(Cl)c1CN1CCC(OCc2cccnc2)CC1 | -4 | -11
Cn1cc(C(=O)N(Cc2cccc(F)c2)C2CC2)ccc1=O | 5 | 1

# Additional results
SMILES,NPYLR7 ag,NPYLR7 ag max-min
CCn1cc(C#N)c(=O)n(CCN2C(=O)c3ccccc3S2(=O)=O)c1=O,3,-1
COc1ccccc1C(O)c1nnc(Nc2ccccc2C)s1 (stereo not drawn),4,2
CC(C)N(Cc1nccn1Cc1ccc(Cl)cc1Cl)C(=O)c1cccc(F)c1,18,28
CC1CC(=O)Nc2c1c(NC(=O)c1nc3ccccc3s1)nn2C (stereo not drawn),-12,-20
O=C(NCCc1cccc(Cl)c1)c1cccnc1Nc1cccc(Cl)c1,-9,-12
CCN(Cc1ccccc1)Cc1nc2sc(C)c(-c3ccc(C)cc3)c2c(=O)[nH]1,5,5
Cc1cc(N2CCCC2)nc(SCc2ccc(C(=O)NCc3ccc4c(c3)OCO4)cc2)n1,-8,-3
O=C(NC1CCCCC1)c1nnc2n1CCN(C(=O)c1cccc(OC(F)(F)F)c1)C2,6,3
CC1=[N+]([O-])C(C)(C)C(c2ccco2)=[N+]1[O-],15,3
O=c1c2c3c(sc2nc2n1CCCCC2)CCCC3,1&-1,7&-3
CCOC(=O)Cc1csc(NC(=O)COc2ccc(Oc3ccccc3)cc2)n1,-8,-11
COc1ccc(-c2nn3c(NCCN4CCOCC4)cc(C)nc3c2C)cc1OC,-6,-15
O=C1C(=O)N(CN2CCCC2c2cccs2)c2ccc(F)cc21 (stereo not drawn),16,11
Cc1occc1-c1nnc(SCc2nc(-c3cccs3)no2)n1C,5,3
Cc1cccc(Nc2nccc(Nc3cccc(C(=O)O)c3)n2)c1,9,0
CCOC(=O)C1CCCN(C(=O)Cc2ccc(Oc3nc(Cc4cccc(OC)c4)ns3)cc2)C1 (stereo not drawn),5,13
Cc1cc(C(c2cc(C)c(N)c(C)c2)c2ccco2)cc(C)c1N,1,-3
Cc1nc(C2CCN(C(=O)NCC3CCCC3)CC2)n[nH]1,11,9
CCOC(=O)C1(Cc2ccc(Cl)cc2)CCN(Cc2cnn(C(C)C)c2)CC1,10,21
O=C(NCCn1nc(-c2ccc(Cl)cc2)ccc1=O)c1cccc(C(F)(F)F)c1,-2,-3
Cc1cc(C)c(NC(=O)Cn2nc(-c3cccs3)c3sc(N4CCOCC4)nc3c2=O)c(C)c1,-1,-8
CN(Cc1cc(C2CC2)n[nH]1)C(=O)c1cc(Cn2cnc3ccccc32)[nH]n1,-6,-11
CCCCS(=O)(=O)N1CC(=O)N(CCOc2ccccc2)CC(O)C1 (stereo not drawn),2,11
CCCc1ccc(C(=O)N2CCC(n3cnc4cc(C(F)(F)F)ccc43)CC2)cc1,2,1
CCOc1ccc2c(c1)c(=O)c(S(=O)(=O)c1ccccc1)cn2Cc1ccc(C)cc1,-8,-14
CC(C)CCNC(=O)C1CSCN1 (stereo not drawn),5,2
CSc1cccc(CN(C)C(=O)c2cccnn2)c1,-5,-6
Cc1ccc(C(=O)N2CCC3(CC2)C(=O)N(CC(=O)NCCc2ccccc2)CN3c2ccccc2)cc1[N+](=O)[O-],21,28
COc1ccc2c(c1)CCc1cc(C(=O)NN3CCCCC3)sc1-2,-15,-21
CN1CC2(CCCN(Cc3ccc(-c4ccn[nH]4)s3)CC2)OC1=O (stereo not drawn),5,5
CCOC(=O)C1=C(C)NC(C)=C(C(=O)OC)C1c1cc(Cl)cc(Cl)c1OC (stereo not drawn),2,1
O=C(OCc1nc2ccccc2c2ccccc12)C1COc2ccccc2O1 (stereo not drawn),1,-2
Cc1cc2nc(N(Cc3cccnc3)C(=O)c3cccc(S(C)(=O)=O)c3)sc2cc1C,0,-5
CC(C(=O)NC1CC1)N1CCCC(c2ncc(-c3ccccc3)[nH]2)C1 (stereo not drawn),2,-1
CCCN(CC1CC1)S(=O)(=O)c1ccc(S(N)(=O)=O)cc1,1,-1
O=C1CN(C(=O)COc2ccccc2F)C2(CCCCC2)C(=O)N1,5,2
Cc1ccc(CNC(=O)Cn2c(C)cc(C)c(C#N)c2=O)cc1,2,-1
CN1CCN(N=Cc2ccccc2O)CC1,0,-2
Nc1nc2c(s1)CN(C(=O)C1CC3(CCNCC3)CN1)CC2 (stereo not drawn),2,-2
CNc1nc2cnc(Nc3cccc(C)c3)cc2n1-c1ccccc1,10,-5
O=C(NC(CN1CCCC1=O)c1cccc(C(F)(F)F)c1)c1cc(-c2ccco2)[nH]n1 (stereo not drawn),1,11
CC(C)(C)C(=O)N1CCC(=NOCc2ccc(F)c(Br)c2)CC1,3,-1
FC(F)(F)c1cccc(CNc2nccnc2-c2ccccc2)c1,-8,-12
CN(C)CCCN(C(=O)CCS(=O)(=O)c1ccccc1)c1nc2c(Cl)cccc2s1,9,7
CCCCc1ccc(Nc2nnc(SCc3nnc(C)o3)s2)cc1,12,3
O=S(=O)(c1ccc(Cl)cc1F)N1CCCC1c1nc2ccccc2[nH]1 (stereo not drawn),6,12
Cn1nccc1C(=O)N1CCCC(C(=O)Nc2ccc(-c3cccc(F)c3)cc2)C1 (stereo not drawn),4,0
C=CCOC(=O)COc1ccc2oc(=O)cc(-c3cc4cccc(OC)c4o3)c2c1,-1,-5
CCN(CC)CCN1C(=O)C(O)=C(C(=O)c2ccco2)C1c1ccc(OC)cc1 (stereo not drawn),-1,19
Cc1cccc(NC(=O)CCNC2CCN(CC(C)C)CC2)c1,26,18
CC(C)(C)CC(=O)N(Cc1ccccc1)CC1CC(c2ccc(Cl)cc2)=NO1 (stereo not drawn),25,31
CCC(NS(=O)(=O)c1cnn(CC)c1)c1ccccc1 (stereo not drawn),3,1
CCCCn1c(=O)c2c(nc3n2CC(C)=NN3CCOCC)n(C)c1=O,1,12
Cc1ccc(S(=O)(=O)Nc2cccc(C3SCCS3)c2)c(Br)c1,6,4
COC(=O)CN1C(=O)CC2(C1=O)C(=O)N(Cc1ccccc1)c1ccc(OC)cc12 (stereo not drawn),8,0
Cc1cc(N)n(-c2cc(N3CCCCC3c3ncc[nH]3)ncn2)n1 (stereo not drawn),-4,-5
N#CC1=C(SC2CCCCC2=O)N=C(N)C(C#N)C12CCCCC2 (stereo not drawn),0,-5
Cc1ccc(CN2C(=O)NC(C)(c3ccc(C#N)cc3)C2=O)cc1 (stereo not drawn),4,4
O=C1NC2(CCCCCC2)C(=O)N1CCS(=O)(=O)Oc1ccc(Br)cc1,0,2
COc1cccc(-c2cc(C(=O)NC(C)(C)C)n3nc(-c4ccccc4)cc3n2)c1,9,8
# (more compounds)
SMILES,NPYLR7 ag,NPYLR7 ag max-min
CCOC(=O)N1CCc2c(sc(NC(=O)c3ccc(C#N)cc3)c2-c2nc3ccccc3s2)C1,3,-1
CSc1nc(=O)cc(N)n1-c1ccc(F)cc1,0,-1
CCCN(CCC)S(=O)(=O)c1ccc(C(=O)Nc2nc(-c3ccc(F)cc3)cs2)cc1,-2,-2
Cc1ccc2nc(CNc3c(C)cccc3C(=O)N3CCCC3)cc(=O)n2c1,-6,-7
O=c1ccc2cc(S(=O)(=O)N3CCC4(CCCNC4)C3)ccc2o1 (stereo not drawn),2,1
COc1cc(C)c(Br)cc1S(=O)(=O)NCc1ccco1,5,8
Clc1ccc(OCCCc2nc(-c3ccccn3)no2)c(Cl)c1,1,-3

# These rows are one share of the data. The share of hits here may be higher or lower than overall.
